Bioassay records deposited in PubChem by National Center for Advancing Translational Sciences (NCATS).
StopGo reporter: lowers the luciferase signal of an FMDV 2A StopGo reporter; human cells with a luciferase reporter of 2A StopGo recoding; control for the full effect not named in the record; Potency, µM (top dose mostly 57.9 µM), for the others: top-dose signal change, negative = less light; 410,000 tested, 1.2% active; AID 1159524; active = well fitted falling curve with a large enough effect; inconclusive = small, poorly fitted or top-dose-only effect; inactive = no such curve, though single readings can be large or run the other way; tested in HEK293T cells; further: on the % scale 0 is the no-effect control and ±100 the full control effect; nearly all actives have a fitted effect of over 45% in size; luciferase light after 4 h
Lassa entry inh: Lassa virus entry inhibition | Lassa virus pseudotype entry inhibition, cell reporter; control for the full effect not named in the record | Potency, µM (top dose mostly 37.9 µM), for the others: at the highest dose activity change, negative = inhibition, usual class: inhibitors | 300,000 tested, 1.2% active; active means well fitted inhibition curve with a large enough effect; inconclusive means small, poorly fitted or top-dose-only effect, or effect the other way; inactive means flat fitted curve, though single readings scatter; tested in HEK293 cells; further: on the % scale 0 is the no-effect control and ±100 the full control effect; nearly all actives have a fitted effect of over 50% in size; luciferase read-out
Cruzain inh Det: inhibitors of Trypanosoma cruzi cruzain with detergent. purified cruzain, Z-FR-AMC fluorescence, 0.01% Triton. Potency, µM, for inactives: max response, negative = inhibition, usual class: inhibitors. 200,000 tested, 0.43% active. AID 1478;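 further: plate controls were neutral wells for no effect and buffer without enzyme for full effect; nearly all actives have a fitted effect of over 40% in size; top concentration of the series not given in the record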
Target sequence (P25779 123-467 limits assumed): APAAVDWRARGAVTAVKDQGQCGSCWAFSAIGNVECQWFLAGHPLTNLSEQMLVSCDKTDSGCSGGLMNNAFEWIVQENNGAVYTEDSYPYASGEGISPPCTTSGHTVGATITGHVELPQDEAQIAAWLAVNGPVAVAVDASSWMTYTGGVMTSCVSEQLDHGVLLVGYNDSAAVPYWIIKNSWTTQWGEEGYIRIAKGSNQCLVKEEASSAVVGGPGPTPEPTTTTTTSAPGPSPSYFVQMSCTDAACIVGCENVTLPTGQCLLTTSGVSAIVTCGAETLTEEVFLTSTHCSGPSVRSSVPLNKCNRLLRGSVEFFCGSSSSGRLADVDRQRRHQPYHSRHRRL
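Detergent-containing run (0.01% Triton X-100) in acetate buffer pH 5.5 with 5 mM DTT: enzyme at 1.5 nM final, 15 min compound preincubation at room temperature, then 2 uM Z-FR-AMC substrate. Activity taken as 60 s fluorescence increase at 360/450 nm.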
RE007 growth inh: less growth of the S. pombe RE007 Vpr strain; S. pombe RE007 Vpr strain, BacTiter-Glo ATP luminescence, 24 h; control for the full effect not named in the record; Potency, µM (top dose mostly 92.2 µM), for the others: at the highest dose activity change, negative = less growth; 360,000 tested, 0.21% active; AID 651644; active = well fitted falling curve with a large enough effect; inconclusive = small, poorly fitted or top-dose-only effect; inactive = no such curve, though single readings can be large or run the other way;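 further: on the % scale 0 is the no-effect control and ±100 the full control effect; nearly all actives have a fitted effect of over 50% in size; the assay follows cell death caused by Vpr and the record does not say whether a fall means rescue or toxicity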
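Fission yeast RE007 carrying one integrated HIV-1 vpr copy, seeded at OD 0.01 in PMG+AL medium with 23 nL pinned compound. Grown 24 h at 30 degrees; viability read by BacTiter-Glo luminescence after 5 min.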
NS1 inh: influenza NS1 inhibition; S. cerevisiae slowed by influenza A NS1, growth recovery by OD600; Potency, µM (highest dose often 46.1 µM), inactives show at the highest dose activity, positive = more growth; 270,000 tested, 0.4% active; AID 2326; active means well fitted rising curve with a large enough effect; inconclusive means small, poorly fitted or top-dose-only effect; inactive means no such curve, though single readings can be large or run the other way; further: nearly all actives have a fitted effect of over 50% in size
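S. cerevisiae expressing influenza A NS1, grown in glucose, washed, then diluted 1:100 into pH 6.0 -URA galactose medium with 23 nl compound. Growth recovery read as OD600; NS1-free strain serves as control.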
SARS PLP yeast: inhibitors of SARS-CoV papain-like protease in yeast; S. cerevisiae expressing SARS-CoV PLpro, growth rescue; control for the full effect not named in the record; 330,000 tested, 0.19% active; Potency, µM (top dose mostly 32.9 µM), for the others: at the highest dose activity, positive = growth rescue; active means well fitted rising curve with a large enough effect; inconclusive means small, poorly fitted or top-dose-only effect; inactive means no such curve, though single readings can be large or run the other way; further: 0% is about no effect; nearly all actives have a fitted effect of over 55% in size; growth read by luminescence after 48 h
Cruzain noTriton: blocks cruzain activity in detergent-free assay. purified cruzain, Z-FR-AMC fluorescence, no detergent. Potency, µM, without a hit: max response, negative = inhibition, usual class: inhibitors. 200,000 tested, 2.3% active;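 further: plate controls were enzyme without inhibitor for no effect and buffer without enzyme for full effect; nearly all actives have a fitted effect of over 40% in size; top concentration of the series not given in the record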
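Purified cruzain at 1.5 nM, pre-incubated 15 min with compound at room temperature in 100 mM sodium acetate pH 5.5, 5 mM DTT, 0.00005% Triton X-100. Reaction started with 2 uM Z-FR-AMC; AMC fluorescence increase over 60 s gives rate.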
MARV entry inh: inhibitors of Marburg virus binding or cell entry; Marburg virus pseudotyped entry inhibition, cell reporter; control for the full effect not named in the record; about a third of the inactives were read at about 46 µM; AID 540276; Potency, µM (series often up to 37.8 µM), inactives show top-dose activity change, negative = inhibition, usual class: inhibitors; 300,000 tested, 1.8% active; active = well fitted inhibition curve with a large enough effect; inconclusive = small, poorly fitted or top-dose-only effect, or effect the other way; inactive = flat fitted curve, though single readings scatter; tested in HEK293 cells; about a fifth of its hits are not listed in these tables; further: on the % scale 0 is the no-effect control and ±100 the full control effect; luciferase read-out
* hit, by the source's call; ? = inconclusive; . = not tested or not shown; & = joins results of further samples; [ ] = dose if it differs, or a comment. Unless noted, the call rests on the fitted dose curve; in most records, active means well fitted curve in the direction sought with a large enough effect; inconclusive means small, poorly fitted or top-dose-only effect, or another doubt; inactive means no such curve, though single readings can be large; an effect the other way counts as inactive or inconclusive. Potency means the concentration at half of the fitted maximal effect.

Every second line gives: StopGo reporter	Lassa entry inh	Cruzain inh Det	RE007 growth inh	NS1 inh	SARS PLP yeast	Cruzain noTriton	MARV entry inh
COc1cccc(C(=O)N2CCc3c([nH]c4ccccc34)C2c2ccc(SC)cc2)c1 (stereo unspecified)
 : -14%	?	4.7%	.	.	.	19%	.
N=c1ccn(Cc2cccc(F)c2)cc1
 : ?	4%	.	10%	0%	-1%	.	-4%
O=[N+]([O-])c1ccc(Nc2ccc3ccccc3c2)nc1
 : .	24%	-3.1%	14%	-10%	0%	3%	-21%
O=C(COc1ccccc1)Nc1ncccn1
 : .	23%	1.9%	-14%	-8%	-2%	2%	3%
O=C(O)CCC(=O)Nc1ccc(S(=O)(=O)Nc2nccs2)cc1
 : -22%&24%	4%	1.0%&3.0%&3.6%	-10%[18.4 µM]	11%	6%	-14%&5%&-2%	15%
CCc1cccc(Nc2cc(C)nc3ncnn23)c1
 : 2%	?	1.1%	17%	-8%	7%	-4%	0%
Oc1ccccc1-c1nc2ccccc2nc1-c1ccccc1
 : -11%	-3%	.	-17%	-1%	-1%	.	-11%
O=C(NCc1ccccc1)c1cccn(Cc2cccc(Cl)c2)c1=O
 : -21%	.	.	1%	0%	-2%	.	.
Cc1csc(=N)n1CC(=O)N1CCc2ccccc21
 : -11%	6%	3.3%	-20%	-5%	-5%	2%	-2%
NC(=O)CN(c1ccccc1)C1SC(=O)N(Cc2ccccc2)C1=O (stereo unspecified)
 : .	11%	3.1%	6%	-12%	0%	-8%	-24%
Cc1ccc(NC(=O)C(C)N2C(=O)c3ccccc3C2=O)cc1 (stereo unspecified)
 : ?	3%	5.3%	4%	-7%	4%	-8%	7%
CC(=NNC(=O)C(C)SC(C)C(=O)NN=C(C)c1cccnc1)c1cccnc1 (stereo unspecified)
 : -3%	-18%[46.1 µM]	.	1%	.	.	.	2%[46.1 µM]
CCc1nn(-c2ccccc2)c(N)c1C#N
 : -2%	7%	1.8%	-3%	-26%	-3%	10%	17%[46.1 µM]
CC(=O)Oc1cc2c(C(=O)NCCCN3CCOCC3)c(C)oc2c2ccccc12
 : -22%	-2%	2.5%	5%	?	-4%	1%	?
COC(=O)c1ccccc1NC(=O)Cn1nnc2sc(-c3ccccc3)cc2c1=O
 : -13%	12%[46.1 µM]	-3.9%	.	.	.	-7%	8%[46.1 µM]
O=C(Nc1cc(Cl)ccc1-n1cncn1)c1cc(F)cc(F)c1
 : -8%	20%	.	6%	.	0%	.	-4%[46.1 µM]
CNc1nc(=S)[nH]c2ccccc12
 : -13%	.	.	2%	5%	0%	.	.
Cc1ccc(C(=O)N/C(=C\c2cccnc2)C(=O)N2CCCC2)cc1
 : 12%	22%	.	0%	-3%	-1%	.	-2%[46.1 µM]
Cc1ccccc1CN1C(=O)CS/C1=N/N=C/c1ccco1
 : -15%	10µM*	.	-8%	1%	-1%	.	11%[46.1 µM]
COc1cccc(Nc2ncnc3sc(C)cc23)c1
 : 47%[activator]	.	.	-14%	-23%	-10%	.	.
CC(C)OC(=O)c1c(-c2ccccc2)c(-c2ccccc2)nn(C)c1=O
 : ?	-24%[46.1 µM]	0.0%	.	.	.	4%	-10%[46.1 µM]
CN(C(=O)C1CCN(S(=O)(=O)c2ccccc2)CC1)c1c(N)n(Cc2ccccc2)c(=O)[nH]c1=O
 : -4%	0%[46.1 µM]	.	-8%	.	0%	.	.
CCOc1cc(S(=O)(=O)Nc2ncn[nH]2)ccc1Br
 : -2%	1%	.	4%	8%	-4%	.	4%
Cc1cc(NC(=O)COC(=O)c2cc([N+](=O)[O-])ccc2N2CCOCC2)ccc1Br
 : 32µM*	?	.	-9%	.	-14%	.	?
COc1cccc(C(=O)N[C@@H](C)C(=O)N2CCC3(CC2)NCCc2[nH]cnc23)c1
 : -12%	5%[46.1 µM]	.	-12%	13%	-5%	.	-1%[46.1 µM]
O=C(NC1CCCC1)c1ccc2nc[nH]c2c1
 : 12%	-3%	1.1%	3%	-5%	-1%	-5%	23%
CC(NC(=O)C(c1ccccc1)c1ccccc1)C(=O)O (stereo unspecified)
 : .	6%	6.3%	-13%	0%	0%	-2%	-1%
CCN(CC)S(=O)(=O)c1cc(NC(=O)CCc2c(C)noc2C)ccc1C
 : -16%	-15%[46.1 µM]	.	-3%	.	-3%	.	?
Cc1ccc(C(=O)N2CCN(c3ccccc3F)CC2)cc1S(=O)(=O)N1CCOCC1
 : -2%	?	.	5%	.	10%	.	7%[46.1 µM]
CCC(C(=O)NCc1ccc(F)cc1)N(CCc1ccccc1)C(=O)c1snc(C(N)=O)c1N (stereo unspecified)
 : -19%	.	.	1%	4%	-1%	.	?

Part of the list above, set out differently.
N=c1ccn(Cc2cccc(F)c2)cc1
  StopGo reporter: ?	Lassa entry inh: 4%	Cruzain inh Det: .	RE007 growth inh: 10%	NS1 inh: 0%	SARS PLP yeast: -1%	Cruzain noTriton: .	MARV entry inh: -4%

CN(C(=O)C1CCN(S(=O)(=O)c2ccccc2)CC1)c1c(N)n(Cc2ccccc2)c(=O)[nH]c1=O
  StopGo reporter: -4%	Lassa entry inh: 0%[46.1 µM]	Cruzain inh Det: .	RE007 growth inh: -8%	NS1 inh: .	SARS PLP yeast: 0%	Cruzain noTriton: .	MARV entry inh: .

Cc1ccc(C(=O)N2CCN(c3ccccc3F)CC2)cc1S(=O)(=O)N1CCOCC1
  StopGo reporter: -2%	Lassa entry inh: ?	Cruzain inh Det: .	RE007 growth inh: 5%	NS1 inh: .	SARS PLP yeast: 10%	Cruzain noTriton: .	MARV entry inh: 7%[46.1 µM]

O=C(NCc1ccccc1)c1cccn(Cc2cccc(Cl)c2)c1=O
  StopGo reporter: -21%	Lassa entry inh: .	Cruzain inh Det: .	RE007 growth inh: 1%	NS1 inh: 0%	SARS PLP yeast: -2%	Cruzain noTriton: .	MARV entry inh: .

The list goes on:
Every second line gives: StopGo reporter	Lassa entry inh	Cruzain inh Det	RE007 growth inh	NS1 inh	SARS PLP yeast	Cruzain noTriton	MARV entry inh
Cc1c(C(C)NC(=O)Nc2ccc(F)cc2F)cnn1C (stereo unspecified)
 : 10%	11%	2.7%	3%	0%	0%	-8%	29%
COc1ccc(NC(=O)C(C)Sc2cc(-c3ccccc3)nc(C)n2)cc1Cl (stereo unspecified)
 : 0%	0%[46.1 µM]	-3.5%	.	.	.	-14%	6%[46.1 µM]
COc1ccccc1N(C)S(=O)(=O)c1ccc(C(=O)N(C)Cc2ccc(OC(F)F)cc2)cc1
 : 35µM*	?	.	-23%	.	5%	.	11µM*
CC(=O)Nc1ccc(Oc2sc(C(=O)c3ccccc3)c(N)c2C#N)cc1
 : ?	0.89µM*	-2.5%	2%	-21%	2%	-5%	?
O=[N+]([O-])c1sccc1CS(=O)(=O)c1ccccc1
 : -8%	11%[46.1 µM]	.	19%	-2%	-1%	.	18%[46.1 µM]
CCCN1CCN(CCCNC(=O)c2ccc(NC(=O)C3=C(C)OCCS3)cc2)CC1
 : 5%	.	.	-2%	10%	6%	.	.
CCn1c2ccccc2c2nnc(SCC(N)=O)nc21
 : .	-3%	-8.2%	-4%	-1%	7%	-12%	2%
CC(=O)c1ccc(NCCC(=O)c2ccccc2)cc1
 : -25%	7%[46.1 µM]	.	5%	2%	0%	.	?
Cc1ccnc(NC(=O)CNC(=O)COc2ccccc2)c1
 : 25%	?	.	-1%	.	2%	.	16%
CC(=O)Nc1c(C)cc(OCC(=O)O)cc1C
 : -11%	14%	3.5%	4%	3%&5%	0%	-3%	-4%&-4%&-4%[46.1 µM]
CCC1CCCCN1CCCNC(=O)C(C)n1nc(C)c2sc3ccccc3c2c1=O (stereo unspecified)
 : -11%	.	.	-4%	-3%	1%	.	.
COc1cccc(C(c2nnnn2C(C)(C)C)N2CCN(C3CCCCC3)CC2)c1OC (stereo unspecified)
 : -6%	17%	2.0%	-11%	-2%	6%	-3%	15%
CCC(=O)N1CCc2cc(Br)cc(S(=O)(=O)CCC(=O)N3CCN(c4ccccc4OC)CC3)c21
 : 0%	21%[46.1 µM]	-8.9%	.	.	.	-2%	-1%[46.1 µM]
COc1cc(C(=O)N2CCN(C(=O)c3cc(-c4ccccc4)n[nH]3)CC2)cc(OC)c1OC
 : 13%	.	.	-3%	-11%	0%	.	.
CCOc1ccccc1OCC(=O)Nc1cc(S(=O)(=O)N2CCCCC2)ccc1N1CCN(CC)CC1
 : -22%	-1%	.	-11%	.	-4%	.	?
CC1Cc2ccccc2N1C(=O)CSc1nnc(NC(=O)Cc2cccs2)s1 (stereo unspecified)
 : -11%	?	16µM*	4%	4%	0%	25µM*	-1%
Nc1ccc(-c2nnn(CC(=O)N3CCCCC3)n2)cc1
 : 7%	.	.	-10%	9%	6%	.	.
COC(=O)C1(C)CCc2cc(OC)ccc2C1=O (stereo unspecified)
 : 0%	23%	1.4%	3%	6%	-8%	7%	4%
CC(C)(C)C(=O)Nc1ccc2nc(SCC(=O)N3CCOCC3)sc2c1
 : 8%	18%[46.1 µM]	-2.9%	.	.	.	-11%	12%[46.1 µM]
O=C(NCCC(c1ccccc1)c1ccccc1)c1cnccn1
 : 0%	3%	-0.3%	18%	-23%	11%	3%	-2%
O=C(NC(=O)c1ccccc1)Nc1ccc(-c2cnco2)cc1
 : 55%[activator]	-1%	.	-19%	-4%	-2%	.	?
Cn1c(N2CCN(S(=O)(=O)c3ccc(Cl)cc3)CC2)nc2ccccc21
 : ?	-24%	.	-9%	-5%	-1%	.	-22%[46.1 µM]
CCc1ccc(-c2cc3c(=O)n(CC(=O)NCCCN4CCC(Cc5ccccc5)CC4)nc(C)n3n2)cc1
 : 0%	.	.	12%	-5%	?	.	.
CCC1CCC(C(=O)NNC(=O)OC)CC1 (stereo unspecified)
 : 9%	?	-0.7%	25%	2%	?	1%	?
COCCNC(=O)CCCn1c(=O)c2cc(OC)c(OC)cc2n(CC(=O)NCCC2=CCCCC2)c1=O
 : -5%	8%	.	7%	.	1%	.	-1%[46.1 µM]

No enrichment for hits; about 4.7% have a hit in one of these screens.
